Source: PubChem (National Center for Advancing Translational Sciences (NCATS))
2A firefly = FMDV 2A StopGo reporter, firefly signal; HEK cells with a luciferase reporter of 2A StopGo recoding; Potency, µM (doses to about 57.5 µM), inactives show top-dose signal change, negative = less light; hit rate 0.23% among 120,000; AID 1745856; active = well fitted falling curve with a large enough effect; inconclusive = small, poorly fitted or top-dose-only effect; inactive = no such curve, though single readings can be large or run the other way; also: nearly all actives have a fitted effect of over 60% in size; overnight with compound
2A Renilla = lowers the Renilla signal of an FMDV 2A StopGo reporter; Potency, µM (titrated, usually from 57.5 µM), without a hit: top-dose signal change, negative = less light; hit rate 0.32% among 120,000; AID 1745857; HEK cells with a luciferase reporter of 2A StopGo recoding; active means well fitted falling curve with a large enough effect; inconclusive means small, poorly fitted or top-dose-only effect; inactive means no such curve, though single readings can be large or run the other way; also: nearly all actives have a fitted effect of over 55% in size; overnight with compound
* marks the source's active call; other numbers are inactive results; ? = inconclusive; [ ] = another dose, or the depositor's remark. % is scaled to controls: 0 for no effect and ±100 for the full control effect; potency is read from the fitted curve at half-maximal effect. Not all compounds are listed; rates above refer to the full screens.

SMILES | 2A firefly | 2A Renilla
COc1ccc2c(c1)O/C(=C\c1ccc(OS(C)(=O)=O)c(OC)c1)C2=O | 18% | 9%
COC(=O)c1c(C)[nH]c(C(=O)CSc2nncn2C)c1C | 23% | 0%
O=C(COc1ccccc1)OCc1cc(=O)n2nc(-c3cccs3)sc2n1 | -1% | -14%
C/C=C/C=C/C(=O)Nc1c(C)cccc1C(C)C | 22% | 3%
COc1cc(OC)cc(C(=O)Nc2ccc3oc(-c4ccccc4F)cc(=O)c3c2)c1 | 159%[activator] | 4%
O=C(Nc1ccccc1C(F)(F)F)C1CCN(S(=O)(=O)c2ccccc2)CC1 | -17% | -5%
O=C1COc2ccc(-c3csc(Nc4ccccc4C(F)(F)F)n3)cc2N1 | ? | ?
O=C(c1cc2cc([N+](=O)[O-])ccc2oc1=O)N1CCCCC1 | 5% | -3%
O=[N+]([O-])c1cccc(N/N=C/c2ccc3ncccc3c2)c1 | 83%[activator] | -7%
O=Cc1c(-c2cc(Cl)c(Cl)cc2Cl)[nH]c2ccccc12 | 18% | ?
O=C(Nc1ccc(F)cc1)c1nc(S(=O)(=O)Cc2ccc(F)cc2)ncc1Cl | 8% | -21%
CCc1ccc(Oc2c(C(F)(F)F)oc3c(CN4CCN(CC)CC4)c(O)ccc3c2=O)cc1 | -5% | -9%
COc1ccc(CNC(=O)C(C)n2nc(C)c3c(C)n(-c4ccccc4)nc3c2=O)c(OC)c1 (stereo unspecified) | -25% | -27%
CCOc1ccc(-n2ccnc2SCC(=O)Nc2ccc(OC)cc2OC)cc1 | -12% | 14%
Cc1ccccc1-c1nnc(SCc2cn3cccc(C)c3n2)o1 | 0% | 10%
C=CCNc1nc2c(c(=O)[nH]c(=O)n2C)n1CCCC | 16% | 7%
Cc1cc(=O)[nH]c2nnc(SCc3c(F)cccc3Cl)n12 | 25% | 49%[activator]
O=C(N/N=C/c1ccccc1Br)c1cccs1 | 216%[activator] | 31%[activator]
COc1ccc(NC(=O)CN(c2ccc(C)cc2)S(=O)(=O)c2cccc3nonc23)cc1OC | -11% | 41%[activator]
O=C(c1cc(Cl)ccc1F)N1CCN(Cc2nnnn2C2CC2)CC1 | -2% | -5%
Fc1cccc(Oc2ccc(CNc3ncccn3)cn2)c1 | 24% | -5%
COc1ccc(Br)c(C(=O)Nc2cc3c(cc2N2CCOCC2)n(C)c(=O)n3C)c1 | -12% | -3%
COc1ccc(C)cc1NC(=O)NC(C(=O)N1CCc2ccccc21)C(C)C (stereo unspecified) | 13% | 4%
O=C(COC(=O)c1ccc2c(c1)-c1ccccc1C2=O)c1cccc([N+](=O)[O-])c1 | 0% | -8%
Cc1cc(C)cc(N(CC(=O)Nc2ccc(C)cc2Cl)S(=O)(=O)c2c(C)[nH]c(=O)[nH]c2=O)c1 | -17% | 25%
Cc1c(CNC2CCCCC2)c(C(=O)O)c(C)n1Cc1ccc(Cl)cc1 | 0% | ?
COC(=O)CSc1nc2ccccc2c(=O)n1-c1cc(OC)ccc1OC | 18% | -4%
COc1ccc(NC(=O)CCc2c(OC)nc3c(c(C)nn3-c3ccccc3)c2C)cc1 | 6% | -1%
CC(=O)N1c2ccc(S(=O)(=O)Nc3ccc(C)c(Cl)c3)cc2CC1C (stereo unspecified) | ? | -6%
O=C(CCc1ncc(-c2c(F)cccc2F)o1)NC1=NCCS1 | 12% | 1%
CCCCN(CC)S(=O)(=O)c1ccc(C(=O)Nc2ccc(Cl)c3ncsc23)cc1 | 13% | 32%[activator]
Cc1ccc(CNC(=O)c2cc(-c3ccc(C)cc3)nc3n[nH]c(-c4cccc([N+](=O)[O-])c4)c23)cc1 | -9% | -6%
Cc1c(C(=O)N2CCC(C(=O)Nc3ccc(F)c(Cl)c3)CC2)sc2nc[nH]c(=O)c12 | -8% | -4%
Fc1ccc(Nc2nc3ccccc3c3nncn23)c(Cl)c1 | -8% | -12%
Cc1ccccc1NC1(c2nnnn2-c2c(C)cccc2C)CCCC1 | 1% | 7%
Cc1cc(NC(=O)C(C)Sc2nnc(C)n2-c2ccccc2C)no1 (stereo unspecified) | 17% | 9%
Cc1ccc(NC(=O)c2ccc3c(Cl)c4c(nc3c2)CCCC4)c(Cl)c1 | 83%[activator] | 11%
COc1ccc(N2C(=O)CS(=O)(=O)C23C(=O)N(Cc2ccc(C)cc2)c2ccccc23)cc1Cl (stereo unspecified) | 0% | -21%
Cc1ccc(NC(=O)C2CCN(c3nc4ccccc4o3)CC2)c(O)c1 | 9% | -20%
O=C1/C(=C/c2ccc(Cl)cc2)Cc2ccccc21 | 102%[activator] | 25%
CC(C)OC(=O)c1c(NC(=O)c2cc3nc(-c4ccccc4)cc(C(F)(F)F)n3n2)sc2c1CCCC2 | -17% | 3%
Cc1cccc(/C=C/C(=O)O)c1 | 6% | 14%
O=C(Nc1ccc(N2CCC(c3ccccc3)C2)c(C(=O)O)c1)c1ccc(Cl)cc1 (stereo unspecified) | 10% | -7%
CCOC(=O)c1c(CN2CCC(C(=O)OC)CC2)nc2ccccc2c1C | 0% | -21%
CCC/C(=N\NC(=O)C(O)(c1ccc(CC)cc1)c1ccc(CC)cc1)c1ccccc1 | -28% | 58%[activator]
COc1ccc2c(CNCc3ccccc3OC)c(C(=O)O)n(Cc3ccc(F)cc3Cl)c2c1 | 9% | 6%
CC(C)CCn1nc(C(=O)NC2CCCc3ccccc32)c2ccccc2c1=O (stereo unspecified) | 1% | 10%
Cc1c(Cl)cccc1NC(=S)NCCc1ccccc1 | 5% | 49%[activator]
COc1ccc(CNC(=O)CCc2c(C)nc3c4cccnc4nn3c2C)cc1 | 5% | 5%
Cc1cc(C)cc(OCC(=O)N(Cc2ccc(Cl)cc2)C2CCS(=O)(=O)C2)c1 (stereo unspecified) | 10% | -6%
Cc1ccsc1/C=C/C(=O)c1cc2ccccc2o1 | 198%[activator] | 185%[activator]
COc1ccc(C(C)NC(=O)c2nn(C)c(=O)c3ccccc23)cc1F (stereo unspecified) | 14% | 11%
CCn1nc(C(=O)Nc2nc(-c3ccc4c(c3)OCCO4)cs2)c2ccccc2c1=O | 68%[activator] | -3%
Cc1ccc(C(=O)N(Cc2ccncc2)C2CC2)s1 | 10% | 12%
O=C(O)CSc1c(Cl)cccc1Cl | 18% | -8%
CCOc1ccc(CC(=O)NCc2ccc3c(c2)CCN3C(=O)c2ccccc2)cc1OCC | -15% | 11%
CCOc1cc(S(=O)(=O)NCCO)ccc1Cl | 5% | 26%
O=C(Cc1ccccc1Cl)NNC(=O)C1CCCCC1 | 24% | 14%
Cc1ccccc1Nc1nnc(SCC(=O)c2ccc(Cl)s2)s1 | 10% | 52%[activator]
Cc1cc2cc(NS(=O)(=O)c3ccc(F)c(F)c3)ccc2[nH]1 | 87%[activator] | 88%[activator]

Record cards, from the list above. Values in the order: 2A firefly | 2A Renilla
COc1ccc(CNC(=O)CCc2c(C)nc3c4cccnc4nn3c2C)cc1 is listed as 5% | 5%
O=C(Cc1ccccc1Cl)NNC(=O)C1CCCCC1 is listed as 24% | 14%
Cc1cc2cc(NS(=O)(=O)c3ccc(F)c(F)c3)ccc2[nH]1 is listed as 87%[activator] | 88%[activator]

(next part)
SMILES | 2A firefly | 2A Renilla
O=C(NC1CCCCCC1)c1ccc2ncsc2c1 | 101%[activator] | 21%
O=C(O)CCCCCCCCCCCl | 2% | -1%
Cc1ccc(NC(=O)C2(c3cccs3)CCOCC2)cc1Cl | -11% | 12%
CCCC(=O)Nc1oc2c(C)cccc2c(=O)c1-c1ccc(OC)cc1 | 8% | -5%
O=C(OCc1ccccc1)c1ccncc1 | -2% | 3%
Cc1cc(C)cc(NC(=O)COC(=O)c2nn(-c3ccccc3)c(=O)c3ccccc23)c1 | 5% | -3%
CCOC(=O)c1c(NC(=O)Cn2nnc(-c3ccccc3)n2)sc(CC)c1C | 105%[activator] | 11%
CC1CCN(S(=O)(=O)c2ccc3c(c2)CCN3)CC1 | -10% | 69%[activator]
CCOCCCNC(=O)c1c(NC(=O)Cc2coc3c(C)c(C)ccc23)sc2c1CCC2 | -15% | -11%
CCCC(=O)O[C@]1(C(=O)CC)CC[C@H]2[C@@H]3CCC4=CC(=O)CC[C@]4(C)[C@H]3[C@@H](O)C[C@@]21C | 17%[11.5 µM] | 8%
Cc1ccc(Cl)cc1N1CCN(S(=O)(=O)c2ccc3c(c2)NC(=O)CCS3)CC1 | -19% | -13%
COc1ccc(S(=O)(=O)Nc2cc(-c3cn4ccc(C)cc4n3)ccc2C)cc1OC | 100%[activator] | 475%[activator]
CCOC(=O)c1sc2nc(C(C)C)c3c(c2c1N)CC(C)(C)OC3 | 2% | -5%
COc1cc(NC(=O)Cc2c(C(=O)O)c(C)cn2C)cc(OC)c1 | -3% | -12%
CCOc1ccc(C(=O)c2cn(CC(=O)Nc3ccc(F)cc3)c3cc4c(cc3c2=O)OCCO4)cc1 | 12% | -8%
O=C(CSCc1cnn(-c2ccccc2)c1-n1cccc1)NCCc1ccccc1 | -9% | 2%
COc1cc(NC(=O)C2CCN(S(=O)(=O)c3ccc(Cl)cc3)CC2)ccc1N1CCCC1=O | -5% | 6%
Cc1ccc(NC(=O)c2ccc(F)c(S(=O)(=O)NCCc3ccccc3)c2)cc1F | ? | 4%
CCc1cccc(NC(=O)C2Cc3ccccc3N2C(=O)c2ccccc2)c1 (stereo unspecified) | -15% | -16%
Cn1cc(-c2cc3n(n2)CCCN3C(=O)CCC(=O)NCCCN2CCCC2)c2ccccc21 | 39%[activator] | -8%
Cc1ccc(N2CCN(c3nc4ccccc4c4nnc(C)n34)CC2)c(C)c1 | 0% | 17%
CC(=O)Nc1ccc(C)cc1-c1nc2ccccc2n(CC(=O)c2ccc(Cl)cc2)c1=O | -18% | -13%
Fc1ccc(-c2csc(Nc3cccc4ccccc34)n2)cc1 | 86%[activator] | 1%
O=C(CC12CC3CC(CC(C3)C1)C2)Nc1ccc(C(=O)c2ccccc2)cc1 | 19% | 7%
O=C(NCC1(N2CCCCC2)CCCCC1)C1CCN(C(=O)c2ccc(F)cc2)CC1 | -8% | -7%
O=S(=O)(c1ccc(-c2csc(NCCc3ccccc3)n2)cc1)N1CCOCC1 | 0% | -23%
CCC(=O)n1nc(-c2ccc(OC)cc2)nc1SC | 120%[activator] | -1%
CCN(c1ccc(C)cc1)S(=O)(=O)c1nnc(NC(=O)c2cccs2)s1 | -8% | 85%[activator]
COc1ccc(CNC(=O)CN2N=C(c3ccccc3)CCC2=O)c(OC)c1 | 16% | 9%
N#Cc1ccc(N)c(Br)c1 | 0% | 14%
COc1cccc(-c2ccc(-c3noc(-c4ccncc4)n3)c(OC)n2)c1 | 21% | -2%
CC1=C(c2cccc(Cl)c2)S(=O)(=O)NC1=NCc1ccccc1C | -7% | 90%[activator]
CCOC(=O)/C(C#N)=C/c1cc(Cl)c(OCCOc2ccc(C(C)CC)cc2)c(OC)c1 (stereo unspecified) | 71%[activator] | 21%
COc1cccc(N(Cc2nnc3n2CCCCC3)C(=O)Nc2ccccc2)c1 | -9% | 0%
CCOC(=O)Cn1cc(/C=C2\SC(=O)N(C)C2=O)c2ccccc21 | 14% | -17%
COC(=O)c1ccc(NC(=O)CC2C(=O)N(c3cccc(F)c3)C(=O)N2CC(C)C)cc1 (stereo unspecified) | 3% | 20%

Sorted by molar mass (ascending): 7 of the compounds above
SMILES | 2A firefly | 2A Renilla
N#Cc1ccc(N)c(Br)c1 | 0% | 14%
CCC(=O)n1nc(-c2ccc(OC)cc2)nc1SC | 120%[activator] | -1%
CCOC(=O)Cn1cc(/C=C2\SC(=O)N(C)C2=O)c2ccccc21 | 14% | -17%
COc1ccc(CNC(=O)CN2N=C(c3ccccc3)CCC2=O)c(OC)c1 | 16% | 9%
O=S(=O)(c1ccc(-c2csc(NCCc3ccccc3)n2)cc1)N1CCOCC1 | 0% | -23%
COC(=O)c1ccc(NC(=O)CC2C(=O)N(c3cccc(F)c3)C(=O)N2CC(C)C)cc1 (stereo unspecified) | 3% | 20%
CCOC(=O)/C(C#N)=C/c1cc(Cl)c(OCCOc2ccc(C(C)CC)cc2)c(OC)c1 (stereo unspecified) | 71%[activator] | 21%

Following part:
SMILES | 2A firefly | 2A Renilla
O=C/C=C/c1ccc([N+](=O)[O-])cc1 | 19% | 19%
COc1ccccc1N1CCN(S(=O)(=O)CCNC(=O)Cc2ccc(Cl)cc2)CC1 | -26% | -6%
COc1ccc2c(C)c(CCC(=O)Nc3cc(C)ccc3F)c(=O)oc2c1 | 0% | 7%
CCn1c(C(=O)NCC(=O)NC2CC2)cc2ccccc21 | 12% | 1%
Cc1c(Cl)cccc1NC(=O)c1cc(-c2cccs2)on1 | 18% | -9%
CCN(CC)c1nc2ccccc2nc1C(=O)Nc1ccccc1C | 0% | -1%
Cc1ccc(C(=O)N/N=C2/CC(=O)CC(C)(C)C2)cc1Br | 60%[activator] | 13%
O=C(CCC(=O)N1CCSc2ccccc21)Nc1ccc(Cl)cc1 | -12% | -1%
CCS(=O)(=O)c1nc(S(=O)(=O)c2ccc(C)cc2)c(NCc2ccccc2Cl)s1 | -20% | 161%[activator]
CCOC(=O)c1c(C)[nH]c(C)c1S(=O)(=O)NCC(=O)N1CCN(c2cccc(C)c2)C(C)C1 (stereo unspecified) | 19% | 126%[activator]
Cc1ccccc1OCC(=O)N1CCC(c2nc3ccccc3s2)CC1 | -6% | -10%
CCC(Oc1ccccc1)C(=O)Nc1sc(C(=O)OC)c(C)c1C(=O)OC (stereo unspecified) | 15% | 14%
CCOc1ccc(C(=O)OCc2cc(=O)n3nc(C4CCCCC4)sc3n2)cc1 | -13% | -2%
COc1ccc(C2=NN(CCC(=O)NCCc3ccccc3)C(=O)CC2)cc1 | -12% | -9%
O=C(NCCc1ccccc1Cl)c1ccc(Cn2c(=O)c3cccn3c3cccnc32)cc1 | -5% | -9%
